From PubChem
Menin MLL FP FL = displaces fluorescein MLL peptide from human menin; 290,000 tested, under 10 active; FP activity change, % at 61.4 µM; Fluorescence polarization, fluorescein-MLL peptide displacement from menin; inconclusive = falling polarisation curve, or a change in total fluorescence; inactive = total fluorescence flat and polarisation flat or rising; no compound was filed as active; the % refers to the polarisation; negative = inhibition;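 further: % of control where 0% means no effect; inhibitors lower the polarisation; unlabelled MLL peptide was the positive control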
gsp antagonist = gsp mutant antagonism; gsp-mutant cells, cAMP HTRF, 30 min; control for the full effect not named in the record; Potency, µM (titrated, usually from 76.9 µM), without a hit: at the top dose activity change, negative = inhibition, actives largely listed as inhibitors; 340,000 tested, 0.4% active; active = falling curve of any shape with a large fitted effect; inconclusive = falling curve, mostly with a smaller effect; inactive = flat or rising curve; cell line not stated here;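 further: intracellular cAMP measured with PDE inhibitor Ro 20-1724 present during compound exposure; potency means the concentration at half of the fitted maximal effect; on the % scale 0 is the no-effect control and ±100 the full control effect; nearly all actives have a fitted effect of over 65% in size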
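Measurement of cellular cAMP by homogeneous time-resolved fluorescence following a 30 min compound exposure at 37C. The PDE inhibitor […] was present throughout; the assay buffer was DPBS with 0.05% BSA and 0.005% Tween 20.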
ClpP mod = qHTS Assay for Activators of ClpP; 340,000 tested, 1.9% active; purified B. subtilis ClpP, FRET peptide cleavage, 20 min; Potency, µM (doses to about 57.5 µM), for the others: at the highest dose activity change, negative = active; ATP-dependent Clp protease proteolytic subunit (Bacillus subtilis (strain 168)), P80244; active = well fitted falling curve with a large enough effect; inconclusive = small, poorly fitted or top-dose-only effect; inactive = no such curve, though single readings can be large or run the other way; further: potency means the concentration at half of the fitted maximal effect; the source files actives as falling curves though it sought activators and does not explain the sign; nearly all actives have a fitted effect of over 65% in size; many hits overshoot -100%
Target sequence (P80244 whole entry, looked up): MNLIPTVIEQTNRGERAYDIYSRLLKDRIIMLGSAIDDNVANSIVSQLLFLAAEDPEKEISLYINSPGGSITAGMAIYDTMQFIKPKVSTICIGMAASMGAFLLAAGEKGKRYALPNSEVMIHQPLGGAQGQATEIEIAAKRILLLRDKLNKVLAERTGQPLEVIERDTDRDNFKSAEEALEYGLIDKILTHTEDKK
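ClpP 10 microg/mL final, pH 8 Tris/KCl buffer with BSA, glycerol, Tween-20; compound pinned in; FRET-FV substrate; RT 20 min; Ex320/Em430; ΔFRET vs ADEP 5.8 microM, DMSO, no enzyme.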
gsp ag = gsp mutant agonism; gsp mutant cells, cAMP HTRF, 30 min; control for the full effect not named in the record; Potency, µM (series often up to 76.9 µM), without a hit: at the highest dose activation (cAMP increase), most hits filed as activators; 340,000 tested, 0.13% active; active = well fitted activation curve with a large enough effect; inconclusive = small, poorly fitted or top-dose-only effect, or another doubt; inactive = no such curve, though single readings can be large or run the other way; cell line not stated here;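 further: phosphodiesterase inhibitor Ro 20-1724 added with compounds to block cAMP breakdown; potency means the concentration at half of the fitted maximal effect; nearly all actives have a fitted effect of over 60% in size; about a fifth of the inactives were tested at one dose only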
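Cells in DMEM/10% FBS with G418 were pretreated with compounds in DMSO plus […] (300 uM stock) for 30 min at 37C. cAMP was measured by HTRF (cAMP-d2 plus anti-cAMP antibody-K) after 30 min at room temperature.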
TRPV1 potentiator = enhances activation of the human vanilloid receptor TRPV1; TRPV1-expressing cells, Fluo-8 calcium influx, capsaicin EC20 potentiation; host cell line not named in the record; control for the full effect not named in the record; potentiation, % at 8.33 µM; 320,000 tested, 0.02% active; active means potentiation above 80%; inconclusive means 30% to 80%; inactive means below 30%; further: 0% is about no effect
Target sequence (Q8NER1 whole entry, looked up): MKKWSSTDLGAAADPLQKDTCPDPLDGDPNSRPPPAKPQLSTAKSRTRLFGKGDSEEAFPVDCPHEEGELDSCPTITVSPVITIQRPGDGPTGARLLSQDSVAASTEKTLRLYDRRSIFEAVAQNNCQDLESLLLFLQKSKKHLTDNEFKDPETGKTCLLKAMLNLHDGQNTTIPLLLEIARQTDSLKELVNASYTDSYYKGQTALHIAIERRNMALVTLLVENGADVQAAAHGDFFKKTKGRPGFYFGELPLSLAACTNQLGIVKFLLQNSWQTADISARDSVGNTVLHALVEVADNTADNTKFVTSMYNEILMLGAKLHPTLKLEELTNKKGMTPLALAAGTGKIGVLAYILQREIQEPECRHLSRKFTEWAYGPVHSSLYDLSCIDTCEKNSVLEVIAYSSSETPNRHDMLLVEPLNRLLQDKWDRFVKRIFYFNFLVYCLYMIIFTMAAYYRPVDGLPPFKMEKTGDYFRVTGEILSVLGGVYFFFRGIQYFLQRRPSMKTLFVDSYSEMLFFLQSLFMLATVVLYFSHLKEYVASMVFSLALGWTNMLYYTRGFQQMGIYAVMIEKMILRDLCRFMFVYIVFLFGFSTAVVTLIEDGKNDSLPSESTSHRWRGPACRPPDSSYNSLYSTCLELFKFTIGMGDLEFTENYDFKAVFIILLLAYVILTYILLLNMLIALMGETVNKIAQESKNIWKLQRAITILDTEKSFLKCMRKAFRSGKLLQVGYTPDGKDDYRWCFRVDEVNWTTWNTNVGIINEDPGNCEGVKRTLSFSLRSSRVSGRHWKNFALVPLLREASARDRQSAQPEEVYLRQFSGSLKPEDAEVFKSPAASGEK
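Cells expressing TRPV1 were dye-loaded with Fluo-8 and read kinetically: 10 s baseline, 3 min after compound (agonist portion), then 2 min after EC20 capsaicin (allosteric enhancer portion). Calcium-bound dye fluorescence at 480/520 nm.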
D2 potentiator = human D2 receptor positive allosteric modulation | P14416 | potentiation, % (no concentration beside the values) | AID 624464 | 360,000 tested, 0.23% active | DiscoveRx D2 beta-arrestin cells, luminescence, 90 min; 100% = 57 uM dopamine signal; active = potentiation of 50% or more; inconclusive = 30% to 50%; inactive = 30% or less;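 further: compound concentration not given in the record; tested on top of an EC20 dose of dopamine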
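PathHunter beta-arrestin assay in DiscoveRx D2 cells. Compounds were added with an EC20 of dopamine (50 nM final) for 90 min at 37 deg C. Luminescence was read 1 h after detection reagent, with 57 uM dopamine as the EC100 control.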
Sfp inh = blocks B. subtilis Sfp PPTase activity. AID 1490. Potency, µM, inactives show max response, negative = inhibition, hits mostly inhibitors. Biochemical Sfp PPTase activity, qHTS. 310,000 tested, 3.5% active. Q9F4F7; active means well fitted inhibition curve with a large enough effect; inconclusive means small, poorly fitted or top-dose-only effect, or another doubt; inactive means no such curve, though single readings can be large or run the other way;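 further: the enzyme is Sfp with the accession as filed and its product quenches rhodamine fluorescence; potency means the concentration at half of the fitted maximal effect; 0% = enzyme reaction without inhibitor and -100% = no enzyme wells; top concentration of the series not given in the record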
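Fluorescence-quenching assay with 15 nM Sfp, 5 uM rhodamine-CoA and 12.5 uM BHQ-2-labelled ybbR peptide in pH 7.6 Hepes/MgCl2 buffer. Enzyme was pre-incubated with compound for 15 min at room temperature. Rate was taken from the 30-min fluorescence change (525/598 nm).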
Active calls of the source: *; [ ] = remark or other dose.

For CN(C)c1nc(C=C(C#N)C#N)c(Cl)n1-c1ccc(F)cc1 the results were Menin MLL FP FL inconclusive, gsp antagonist 15%, gsp ag 3%, TRPV1 potentiator 1, D2 potentiator -3 and Sfp inh 8%.
`CCN(CC)c1ccc(NC(=O)c2ccco2)c(C)c1` gave Menin MLL FP FL 3.2, gsp antagonist -17%, ClpP mod -2.0%, gsp ag 21%, TRPV1 potentiator -5, D2 potentiator -10 and Sfp inh 25%.
`CCC(c1nnnn1Cc1ccco1)N1CCN(C(=O)c2ccco2)CC1` (stereo unspecified) gave Menin MLL FP FL -1.1, gsp antagonist -5%, ClpP mod -0.7%, gsp ag 8%, TRPV1 potentiator inconclusive, D2 potentiator -11 and Sfp inh -3%.
`C=CCNc1nnc(Cc2ccc(C(C)C)cc2)c(=O)[nH]1` gave Menin MLL FP FL -1.3, gsp antagonist 8%, ClpP mod 2.0%, gsp ag inconclusive, TRPV1 potentiator -3, D2 potentiator -26 and Sfp inh -3%.
CCc1nc2c(n1O)CCc1nonc1-2 was read as Menin MLL FP FL -0.3, gsp antagonist 8%, ClpP mod 1.1%, gsp ag -50%[inhibitor], TRPV1 potentiator 9, D2 potentiator -4 and Sfp inh 5%.
`CCOc1cc(/C=C2/C(=N)N3C(=NC2=O)SN=C3S(=O)(=O)C(C)C)ccc1OC(=O)c1ccco1` gave gsp antagonist -20%, ClpP mod 0.2%, gsp ag inconclusive, TRPV1 potentiator 0, D2 potentiator -8 and Sfp inh -11%.
For Cc1ccc(-c2cc(C(=O)Nc3c(C#N)cnn3C)no2)cc1 the results were Menin MLL FP FL 1.5, gsp antagonist -17%, ClpP mod 0.8%, gsp ag 4%, TRPV1 potentiator 11, D2 potentiator -19 and Sfp inh 0%.
`Cc1cc(C)cc(N(CC(=O)NC2CCCCC2)C(=O)CNC(=O)c2ccco2)c1` gave Menin MLL FP FL 6.8, gsp antagonist -8%, ClpP mod -2.4%, gsp ag 2%[15.4 µM], TRPV1 potentiator inconclusive, D2 potentiator -7 and Sfp inh 6%.
COc1ccccc1N(CN1CCCC1=O)C(=O)c1c(F)cccc1Cl was read as Menin MLL FP FL -0.7, gsp antagonist 3%, ClpP mod -2.1%, gsp ag 7%, TRPV1 potentiator 3, D2 potentiator -1 and Sfp inh 10%.
For O=C(Nc1ccc(N2CCN(C(=O)c3cccs3)CC2)cc1)c1cccc(F)c1 the results were Menin MLL FP FL 0.5, gsp antagonist inconclusive, gsp ag 21%, TRPV1 potentiator -2, D2 potentiator 0 and Sfp inh 7%.
`Cc1ccc(SSc2cc(C)ccc2N)c(N)c1` gave gsp antagonist -4%, ClpP mod -11%, TRPV1 potentiator inconclusive and D2 potentiator -14.
For Cc1ccc(C)c(C(C)NC(=O)Cc2cccs2)c1 (stereo unspecified) the results were Menin MLL FP FL -0.6, gsp antagonist -13%, ClpP mod 0.8%, gsp ag -1%[15.4 µM], TRPV1 potentiator -14, D2 potentiator 0 and Sfp inh 6%.
`Cc1ccc(-c2nn(C)c(=O)c3ccccc23)cc1CNC(=O)CN1CCOCC1` gave Menin MLL FP FL 4.0, gsp antagonist 9%, ClpP mod -18%, gsp ag -51%[inhibitor], TRPV1 potentiator 21, D2 potentiator -10 and Sfp inh -3%.
For CCCN1C(=O)/C(=N\OCC(=O)NC23CC4CC(CC(C4)C2)C3)c2ccccc21 the results were Menin MLL FP FL -0.9, gsp antagonist -12%, ClpP mod 1.7%, gsp ag -6%, TRPV1 potentiator -20, D2 potentiator 0 and Sfp inh -12%.
CCOc1cc(NC(=O)c2ccccn2)c(OCC)cc1NC(=O)c1ccc(Cl)cc1 was read as Menin MLL FP FL -5.5, gsp antagonist 6%, ClpP mod 1.6%, gsp ag -23%, TRPV1 potentiator -2, D2 potentiator -9 and Sfp inh 5%.
CCCCS(=O)Cc1ccccc1 (stereo unspecified) was read as Menin MLL FP FL 3.8, gsp antagonist -1%, ClpP mod 0.2%, gsp ag -1%, TRPV1 potentiator -2, D2 potentiator -6 and Sfp inh 16%.
COc1ccc(NS(=O)(=O)c2cc(NC(=O)c3cccs3)ccc2N2CCOCC2)cc1 was read as Menin MLL FP FL 0.6, gsp antagonist -17%, ClpP mod 1.2%, gsp ag -34%[inhibitor], TRPV1 potentiator -6, D2 potentiator -23 and Sfp inh -3%.
For O=C1N(Cc2cccc(Cl)c2)C[C@@H]2C[C@@H](c3cccc4ncccc34)N3CCC[C@@]123 the results were Menin MLL FP FL -2.8, gsp antagonist -19%, gsp ag 25%, TRPV1 potentiator -4, D2 potentiator -7 and Sfp inh 19%.
For CCN1CCN(c2cc(C)c3cc(NC(=S)NCCCOC)ccc3n2)CC1 the results were Menin MLL FP FL -3.7, gsp antagonist 6%, ClpP mod -21%, gsp ag 6%, TRPV1 potentiator -2, D2 potentiator -16 and Sfp inh 15%.
CCOC(=O)C(=O)N(CC)C1CCS(=O)(=O)C1 (stereo unspecified) was read as Menin MLL FP FL 1.0, gsp antagonist 11%, gsp ag -11%[15.4 µM], TRPV1 potentiator 15, D2 potentiator -6 and Sfp inh 8%.
`COc1ccccc1-c1coc2c(CN3CCN(C)CC3)c(O)ccc2c1=O` gave Menin MLL FP FL -0.8, gsp antagonist 23%, ClpP mod 7.9µM*, gsp ag 10%, TRPV1 potentiator 4, D2 potentiator -7 and Sfp inh -6%.
COc1ccc(NC(=O)CSc2nnc(C)n2C2CCCCC2)cc1 was read as Menin MLL FP FL -0.4, gsp antagonist 1%, gsp ag 1%[15.4 µM], TRPV1 potentiator -2, D2 potentiator -5 and Sfp inh -10%.
`Cc1[nH]c2ccccc2c1/C=N\NC(=O)CNc1ccc2c(c1)OCO2` gave Menin MLL FP FL 5.1, gsp antagonist 8%, ClpP mod -0.5%, gsp ag 19%[15.4 µM], TRPV1 potentiator 4, D2 potentiator -4 and Sfp inh -18%.
Cc1cccc(NS(=O)(=O)c2ccc3c(c2)NC(=O)CC(=O)N3)c1 was read as Menin MLL FP FL -1.0, gsp antagonist 12%, ClpP mod -3.4%, gsp ag -2%, TRPV1 potentiator -11, D2 potentiator -10 and Sfp inh 17%.
For COc1ccc(C2C(C(=O)NCc3ccccn3)c3cc(OC)c(OC)cc3C(=O)N2C)cc1 (stereo unspecified) the results were Menin MLL FP FL 2.1, gsp antagonist -2%, ClpP mod -0.5%, gsp ag 6%, TRPV1 potentiator -8, D2 potentiator -28 and Sfp inh 9%.
`O=C(CSc1ncc(-c2ccccc2)n1C1CCCC1)N1CCc2ccccc21` gave Menin MLL FP FL 4.0, gsp antagonist inconclusive, ClpP mod -0.7%, gsp ag -1%, TRPV1 potentiator -15, D2 potentiator -22 and Sfp inh 3%.
For O=C(CN1CCN(C2CCCCC2)CC1)c1c[nH]c2ccccc12 the results were Menin MLL FP FL 5.1, gsp antagonist 13%, ClpP mod -0.1%, gsp ag 4%, TRPV1 potentiator -15, D2 potentiator -31 and Sfp inh -9%.
For CCc1nnc(NS(=O)(=O)c2ccc(Nc3ccc([N+](=O)[O-])c4nonc34)cc2)s1 the results were Menin MLL FP FL inconclusive, gsp ag -2%[15.4 µM], TRPV1 potentiator 1, D2 potentiator -41 and Sfp inh 11%.
`CCc1c(C)nc2ncnn2c1N1CCC(C(=O)NCc2cccc(OC)c2)CC1` gave Menin MLL FP FL 1.0, gsp antagonist -9%, ClpP mod -3.4%, gsp ag 2%, TRPV1 potentiator 4, D2 potentiator -10 and Sfp inh 26%.
CCOc1ccc(NC(=O)CN(C)C(=O)c2cc(C)on2)cc1OCC was read as gsp antagonist 15%, ClpP mod -1.6%, gsp ag -17%, TRPV1 potentiator 0 and D2 potentiator 1.
For O=C(Nc1cnc2sccn2c1=O)c1ccccc1Cl the results were Menin MLL FP FL 0.9, gsp antagonist -3%, ClpP mod -5.3%, gsp ag inconclusive, TRPV1 potentiator inconclusive, D2 potentiator -7 and Sfp inh 21%.
`O=S(=O)(CCc1nc2ccccc2o1)c1ccc(Cl)cc1` gave Menin MLL FP FL 10, gsp antagonist 20%, ClpP mod 1.2%, gsp ag -6%, TRPV1 potentiator -44, D2 potentiator -21 and Sfp inh 21%.
NC(=O)CC(NC(=O)Cc1ccc(Br)cc1)c1ccc(NCCc2ccccc2F)c([N+](=O)[O-])c1 (stereo unspecified) was read as Menin MLL FP FL 0.8, gsp antagonist -4%, ClpP mod 1.5%, gsp ag 3%, TRPV1 potentiator -8, D2 potentiator -6 and Sfp inh -16%.
CCn1ccc(C(=O)Nc2ccc3c(c2)CCC3)n1 was read as gsp antagonist 10%, ClpP mod 0.8%, gsp ag 2%, TRPV1 potentiator -19, D2 potentiator 2 and Sfp inh 10%.
For Cc1cc(N2CCCC2)c(C)cc1C=O the results were Menin MLL FP FL 1.1, gsp antagonist -12%, ClpP mod 0.6%, gsp ag 0%, TRPV1 potentiator -12, D2 potentiator 10 and Sfp inh -2%.
`O=C(COc1coc(CN2CCCc3ccccc32)cc1=O)Nc1ccc([N+](=O)[O-])cc1` gave gsp antagonist -8%, gsp ag -1%[15.4 µM], TRPV1 potentiator -4 and D2 potentiator -3.
For Cc1c(OC(C(=O)O)c2ccccc2)ccc2c3c(c(=O)oc12)CCC3 (stereo unspecified) the results were Menin MLL FP FL 0.9, gsp antagonist -5%, ClpP mod 3.4%, gsp ag 7%, TRPV1 potentiator -16, D2 potentiator 3 and Sfp inh 8%.
O=C(c1ccccc1)N1CCCCC(Sc2nnc3ccccn23)C1=O (stereo unspecified) was read as Menin MLL FP FL -0.7, gsp antagonist 4%, ClpP mod 8.7%, gsp ag 0%, TRPV1 potentiator -13, D2 potentiator -9 and Sfp inh 9%.
`CC(C)(C)NC(=O)NC(=O)COC(=O)COc1ccc(Cl)cc1Cl` gave Menin MLL FP FL -0.5, gsp antagonist 1%, ClpP mod 1.9%, gsp ag inconclusive, TRPV1 potentiator inconclusive, D2 potentiator 2 and Sfp inh 12%.
`COC(=O)c1cn(NC(=O)c2ccc(OC)c([N+](=O)[O-])c2)c(=O)c2ccccc12` gave Menin MLL FP FL 3.1, gsp antagonist -11%, ClpP mod 3.4%, gsp ag -8%[15.4 µM], TRPV1 potentiator -21, D2 potentiator -25 and Sfp inh 0%.
